MT1-MMP reporter: inhibitors of MT1-MMP promoter transcription, cell-based, luciferase reporter, luminescence (AID 618); MT1-MMP promoter luciferase reporter cells, luminescence; calls from a first round at 10 µM; hits with a dose series show EC50 in µM; hit rate 0.62% among 87,000;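 active = over half of the reporter light lost at 10 µM or EC50 under 50 µM; inactive = the rest and hits that failed the dose series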;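 note: actives suppress MT1-MMP promoter-driven transcription so potencies describe inhibitors; HT1080 fibrosarcoma cells; overnight exposure; toxic or luciferase-blocking compounds were not removed from the actives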
Calls only; i = inactive.

> CCOc1ccc2oc(=O)cc(C)c2c1
  MT1-MMP reporter: i
> CCC/C=C(\CCC)C(NS(=O)(=O)c1cccc2cccnc12)c1ccc(-c2ccccc2)cc1 (configuration not stated)
  MT1-MMP reporter: i
> COc1cc(/C=N/Nc2nc(N3CCCC3)nc(N3CCCC3)n2)ccc1O
  MT1-MMP reporter: i
> CCN(CC)C(=O)Cn1c(=O)n(-c2ccccc2)c(=O)c2c3c(sc21)CCC3
  MT1-MMP reporter: i
> CCOc1ccc(NC(=O)c2cc3cc4ccc(OC)cc4nc3o2)cc1
  MT1-MMP reporter: i
> CCC(C)c1ccc(OCCCCN2CCOCC2)cc1 (configuration not stated)
  MT1-MMP reporter: i
> O=C1CC(c2cccc(Cl)c2)C(n2cncn2)C(=O)C1C1NCCc2ccccc21 (configuration not stated)
  MT1-MMP reporter: i
> COC(=O)[C@@]1(Cc2ccccc2)[C@H]2c3cc(C(=O)N4CCCC4)n(Cc4ccc(C(F)(F)F)nc4)c3C[C@H]2CN1C(=O)c1ccccc1
  MT1-MMP reporter: i
> O=C(Cc1ccccc1I)Nc1ccccc1
  MT1-MMP reporter: i
> COC(=O)c1ccc(CN(c2ccccn2)S(=O)(=O)c2ccccc2)cc1
  MT1-MMP reporter: i
> CC(C)c1ccc(C(=O)NCCCc2ccccc2)cc1
  MT1-MMP reporter: i
> CCCC[C@@H]1C[C@H]1C(NC(=O)c1ccccc1)c1ccccc1 (some centres not stated)
  MT1-MMP reporter: i
> C=C1C(=O)C=C2CN(C(=O)c3ccccc3)[C@@](Cc3ccc(OC)cc3)(C(=O)OC)[C@@H]12
  MT1-MMP reporter: i
> Cc1ccc(NC(=O)CN2CCN(CCN=CC3=C(O)CC(C)(C)CC3=O)CC2)cc1
  MT1-MMP reporter: i
> CC(C)(C)Cc1nc2ccccc2n1CCc1ccccc1
  MT1-MMP reporter: i
> COC(=O)[C@@]1(Cc2ccc(OC)cc2)[C@H]2c3cc(C(=O)N4CCCC4)n(CCSCCO)c3C[C@H]2CN1C(=O)c1ccccc1
  MT1-MMP reporter: i
> COc1c(O)c(O)cc2c1oc1c3ccccc3oc(=O)c21
  MT1-MMP reporter: i
> CC(=O)N1[C@H](Cc2ccccc2)C=C[C@]1(C)C(=O)NCc1cc(F)cc(C(F)(F)F)c1
  MT1-MMP reporter: i
> COC(=O)Cn1c(C(=O)N2CCCC2)cc2c1C[C@H]1CN(C(=O)c3ccccc3)[C@@](Cc3ccccc3)(C(=O)OC)[C@@H]21
  MT1-MMP reporter: i

Among those listed so far, 5 contain an aryl methoxy group:
> COc1cc(/C=N/Nc2nc(N3CCCC3)nc(N3CCCC3)n2)ccc1O
  MT1-MMP reporter: i
> CCOc1ccc(NC(=O)c2cc3cc4ccc(OC)cc4nc3o2)cc1
  MT1-MMP reporter: i
> C=C1C(=O)C=C2CN(C(=O)c3ccccc3)[C@@](Cc3ccc(OC)cc3)(C(=O)OC)[C@@H]12
  MT1-MMP reporter: i
> COC(=O)[C@@]1(Cc2ccc(OC)cc2)[C@H]2c3cc(C(=O)N4CCCC4)n(CCSCCO)c3C[C@H]2CN1C(=O)c1ccccc1
  MT1-MMP reporter: i
> COc1c(O)c(O)cc2c1oc1c3ccccc3oc(=O)c21
  MT1-MMP reporter: i

Structural class: those above with a furan ring, fused or not
> CCOc1ccc(NC(=O)c2cc3cc4ccc(OC)cc4nc3o2)cc1
  MT1-MMP reporter: i
> COc1c(O)c(O)cc2c1oc1c3ccccc3oc(=O)c21
  MT1-MMP reporter: i

High-throughput results (PubChem)

Only part of the results is shown; the hit share may differ from the screen's.
